RecA splice inh = blocks M. tuberculosis RecA intein splicing. P9WHJ3. cell-free RecA intein splicing, fluorescence. inhibition, %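 (about 9 µM by stock and volumes)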. actives 0.75% (n = 290,000). AID 2221; in the data active = inhibition above about 30%; inconclusive = no clear call, values can overlap the other calls;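 also: 0% = vehicle wells and 100% = reference inhibitor control wells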
Target sequence (P9WHJ3 whole entry, looked up, canonical isoform): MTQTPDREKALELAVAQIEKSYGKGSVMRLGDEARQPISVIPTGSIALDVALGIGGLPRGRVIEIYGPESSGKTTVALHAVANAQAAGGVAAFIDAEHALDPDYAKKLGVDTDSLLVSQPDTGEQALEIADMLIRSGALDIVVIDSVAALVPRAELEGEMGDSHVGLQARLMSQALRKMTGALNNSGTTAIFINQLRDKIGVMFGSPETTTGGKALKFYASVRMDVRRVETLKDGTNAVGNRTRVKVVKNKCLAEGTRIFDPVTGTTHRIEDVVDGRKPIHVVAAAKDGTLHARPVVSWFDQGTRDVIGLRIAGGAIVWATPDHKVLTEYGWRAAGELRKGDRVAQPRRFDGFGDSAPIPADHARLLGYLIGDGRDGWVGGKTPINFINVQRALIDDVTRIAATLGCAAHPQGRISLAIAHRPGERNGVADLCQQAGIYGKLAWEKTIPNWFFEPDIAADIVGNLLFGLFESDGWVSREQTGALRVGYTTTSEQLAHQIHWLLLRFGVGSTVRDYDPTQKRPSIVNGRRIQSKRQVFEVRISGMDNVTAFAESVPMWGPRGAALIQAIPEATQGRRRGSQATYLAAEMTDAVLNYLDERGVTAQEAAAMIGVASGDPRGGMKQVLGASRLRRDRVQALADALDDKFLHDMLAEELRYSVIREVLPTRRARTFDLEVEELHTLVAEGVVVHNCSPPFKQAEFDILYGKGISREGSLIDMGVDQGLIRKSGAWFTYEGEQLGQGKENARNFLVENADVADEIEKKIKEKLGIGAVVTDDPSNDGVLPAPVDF
Mtb H37Rv = M. tuberculosis H37Rv growth inhibitors, H37Rv strain (AID 1626) | M. tuberculosis H37Rv growth inhibition; higher % means a stronger effect | inhibition, % at 10 µM; hits with a dose series show IC50 in µM | actives 0.95% (n = 220,000);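 active = confirmed in a dose series; inconclusive = inhibition above 80% but not taken into the dose series; inactive = below 80% or under 30% at every dose of the series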;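 also: bacteria incubated seven days before Alamar blue readout; 0% = bacteria only wells and 100% = bacteria with antibiotic wells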
Mtb betalactam = beta-lactam sensitization of Mtb H37Rv. inhibition, % at 25 µM. AID 434955. M. tuberculosis H37Rv growth with meropenem, percent inhibition; hits of this screen are not shown here. actives 0.27% (n = 330,000);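 active = about 74% or more and at least 40 points above the plate without the antibiotic, then above 30% in a dose series; inconclusive = first-round hits that could not be retested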;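 also: growth measured after seven days incubation then overnight dye step; 0% = bacteria only wells and 100% = bacteria with antibiotic; twin plates without the antibiotic show which effects depend on it; some results filed as inactive read as strong as hits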
YopH PTP inh = inhibitors of Yersinia enterocolitica YopH tyrosine phosphatase; fluorescence Ex485/Em525; inhibition, %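 (about 10 µM by stock and volumes)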; actives 0.16% (n = 140,000);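 active = inhibition of 50% or more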;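 also: controls were vehicle for no effect and minimum signal wells for full effect; inactives centre near -20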
Arbovirus anti = arbovirus infection inhibition | inhibition, % at 10 µM | actives 0.37% (n = 200,000) | arbovirus infection cell-based antiviral screen;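 active = inhibition from about 30%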;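 also: bluetongue infection of BSR cells; cell survival read as ATP light after 72 h; 0% = infected wells without compound and 100% = uninfected wells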
Arbovirus anti repeat = further read-out of Arbovirus anti, marked with its call; inhibition, %; measured here: 10K subset replicate screen; many hits read low in the repeat;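 first of two repeat runs on a subset; 0% = infected and 100% = uninfected wells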
The depositor's hits bear a star; & = joins results of further samples. This is a subset (hit frequency here may not be typical).

How did Cc1ccc(S(=O)(=O)NC(C)CCc2ccccc2)cc1C(N)=O (centres undefined) do in these assays?
RecA splice inh: 6.5; Mtb betalactam: 3

What do the screens show for `O=C(CCS(=O)(=O)Cc1ccccc1)NCC1CCCO1` (centres undefined)?
RecA splice inh: -0.2; Mtb H37Rv: -1%; Mtb betalactam: 2; YopH PTP inh: 5; Arbovirus anti: 2

How did CCOC(=O)c1nn(-c2ccc(Br)cc2)cc1C(=O)c1cccc2ccccc12 do in these assays?
RecA splice inh: 0.2; Mtb H37Rv: 0%; Mtb betalactam: 7; YopH PTP inh: -28; Arbovirus anti: -3

Results for Cc1cc(NC(=O)CSc2nc(C)c(C)c(=O)[nH]2)no1 ?
RecA splice inh: 1.2; Mtb betalactam: -8

How did CCOC(=O)c1cc2cc([N+](=O)[O-])ccc2oc1=O do in these assays?
RecA splice inh: 2.5; Mtb H37Rv: 1%; Mtb betalactam: 21

What do the screens show for `CCN1C(=O)CS/C1=N\S(=O)(=O)c1ccccc1`?
RecA splice inh: -2.0; Mtb H37Rv: 4%; Mtb betalactam: -10

What do the screens show for `CCOC(=O)c1ccc(OCC2NCCc3cc(OC)c(OC)cc32)cc1` (centres undefined)?
RecA splice inh: 0.2; Mtb betalactam: -2

What do the screens show for `CCCCCCc1c(O)c2ccccc2[nH]c1=O`?
RecA splice inh: -0.6; Mtb H37Rv: 2%; Mtb betalactam: -6; YopH PTP inh: -12; Arbovirus anti: 9

How did CCN1C(=O)[C@H]2[C@@H](c3ccc(SC4CCCCC4)c(OC)c3)N[C@@](Cc3ccccc3)(C(=O)OC)[C@H]2C1=O do in these assays?
RecA splice inh: 0.8; Mtb betalactam: -5

Results for O=C(NNc1ncc(C(F)(F)F)cc1Cl)c1ccc(Cl)c(Cl)c1 ?
RecA splice inh: -4.2; Mtb H37Rv: 1%; Mtb betalactam: 15

Of the compounds above, these have a halogen.
How did CCOC(=O)c1nn(-c2ccc(Br)cc2)cc1C(=O)c1cccc2ccccc12 do in these assays?
RecA splice inh: 0.2; Mtb H37Rv: 0%; Mtb betalactam: 7; YopH PTP inh: -28; Arbovirus anti: -3

Results for O=C(NNc1ncc(C(F)(F)F)cc1Cl)c1ccc(Cl)c(Cl)c1 ?
RecA splice inh: -4.2; Mtb H37Rv: 1%; Mtb betalactam: 15

Carrying on.
What do the screens show for `CCCCn1c(-c2ccccc2C)nc2cc3[nH]c(=O)c(C(C)C)nc3cc21`?
RecA splice inh: 9.5; Mtb betalactam: 94

Results for CC(C)(C)NC(=O)NC(=O)COC(=O)CCC1CCCC1 ?
RecA splice inh: 2.8; Mtb H37Rv: -3%; Mtb betalactam: -8

Results for COc1cccc(-n2ccnc2SCC(=O)NCc2ccccc2)c1 ?
RecA splice inh: 2.9; Mtb H37Rv: -21%; Mtb betalactam: -7; YopH PTP inh: -23; Arbovirus anti: 1

How did CCCOc1ccc(C2=CSC3=NCCN23)cc1Cl do in these assays?
RecA splice inh: -3.7; Mtb betalactam: -5

Results for COCCNC(=O)C1CCCN(S(=O)(=O)c2ccc3c(c2)CC(C)N3C(=O)C2CC2)C1 (centres undefined) ?
RecA splice inh: 0.6; Mtb betalactam: -4

How did Cc1ccc(-c2nnn(CC(=O)N3CCCCC3)n2)o1 do in these assays?
RecA splice inh: -0.9; Mtb H37Rv: -1%; Mtb betalactam: 8; Arbovirus anti: 10

What do the screens show for `CN(C)/C=N/NC(=O)c1ccc(Cl)cc1`?
RecA splice inh: 2.8; Mtb H37Rv: 0%; Mtb betalactam: -4; Arbovirus anti: 6

How did Cc1oc2nc(SCC(=O)NCCCO)nc(N)c2c1C do in these assays?
RecA splice inh: -1.9; Mtb H37Rv: 0%; Mtb betalactam: -5; YopH PTP inh: -15; Arbovirus anti: -3

What do the screens show for `O=S(=O)(Cc1cc(NCc2ccccc2)nc(-c2ccccn2)n1)c1ccccc1`?
RecA splice inh: 2.6; Mtb H37Rv: 17%; Mtb betalactam: 70; Arbovirus anti: 3

How did O=C(OCCOc1cccc(Cl)c1)C1CCN(S(=O)(=O)c2ccccc2)CC1 do in these assays?
RecA splice inh: 5.6; Mtb betalactam: -2

What do the screens show for `CC(C)(C)NC(=O)NC(=O)CN1C(=O)NC(c2ccccc2)(c2ccccc2)C1=O`?
RecA splice inh: 0.7; Mtb betalactam: 5

What do the screens show for `CC(C)CNC(=S)NNC(=O)c1csc2c1CCCC2`?
RecA splice inh: 1.4; Mtb H37Rv: 7%; Mtb betalactam: -2; YopH PTP inh: -23; Arbovirus anti: 1

Results for O=C(NCc1cccnc1)NC1(C(F)(F)F)Oc2ccc(Cl)cc2O1 (centres undefined) ?
RecA splice inh: -1.8; Mtb H37Rv: 6%; Mtb betalactam: 90; YopH PTP inh: -68; Arbovirus anti: -10; Arbovirus anti repeat: -2

How did CC(=O)Nc1ccc2c(CSc3nnc(N)s3)cc(=O)oc2c1 do in these assays?
RecA splice inh: 0.0; Mtb H37Rv: 5%; Mtb betalactam: 0

Results for CCCCCc1cc(=O)oc2c(C(CCN(CC)CC)c3ccc(N(C)C)cc3)c(OC)cc(OC)c12 (centres undefined) ?
RecA splice inh: 12; Mtb H37Rv: 4.1µM*; Mtb betalactam: 100

What do the screens show for `O=C(c1ccc(C(F)(F)F)cc1)C1CCCN(C(=O)CCn2cncn2)C1` (centres undefined)?
RecA splice inh: 0.7; Mtb betalactam: 0

How did CCOc1ccc(N/C=C/C(=O)c2ccc(C)cc2)c([N+](=O)[O-])c1 do in these assays?
RecA splice inh: -1.6; Mtb H37Rv: -2%; Mtb betalactam: 4; YopH PTP inh: -17; Arbovirus anti: 6

How did COC(=O)CSc1nc(C)c2c(n1)CCCC2 do in these assays?
RecA splice inh: -0.7; Mtb H37Rv: -4%; Mtb betalactam: 2; Arbovirus anti: 5

Results for CCN(CC)S(=O)(=O)c1ccc(OC)c(NC(=O)c2cc3c(=O)n4ccccc4nc3s2)c1 ?
RecA splice inh: -4.4; Mtb H37Rv: -8%; Mtb betalactam: 4; YopH PTP inh: -24; Arbovirus anti: -22

What do the screens show for `COc1ccc(S(=O)(=O)N2CCC(C(=O)NCCC(=O)Nc3ccc(Cl)cc3)CC2)cc1`?
RecA splice inh: -4.5; Mtb betalactam: -6

How did CC1CC(C)CN(c2nc(N(C)c3ccccc3)nc(N)c2[N+](=O)[O-])C1 (centres undefined) do in these assays?
RecA splice inh: 7.2; Mtb H37Rv: 3%; Mtb betalactam: 40

What do the screens show for `COCCCn1c(N)c(-c2nc3ccccc3n2C)c2nc3ccccc3nc21`?
RecA splice inh: -47; Mtb H37Rv: inconclusive; Mtb betalactam: 100; YopH PTP inh: 42; Arbovirus anti: 44*

How did O=c1c(-c2ccc(Cl)cc2)c[nH]n1-c1ccccc1 do in these assays?
RecA splice inh: -4.6; Mtb betalactam: 1

How did CC(=O)OCC(=O)c1c[nH]c2ccccc12 do in these assays?
RecA splice inh: 0.3; Mtb H37Rv: -1%; Mtb betalactam: -5; Arbovirus anti: 2; Arbovirus anti repeat: 4

What do the screens show for `CCCCn1c(N)c(Sc2ccccc2)c(=O)[nH]c1=O`?
RecA splice inh: -3.5; Mtb H37Rv: 1%; Mtb betalactam: 3; YopH PTP inh: -31; Arbovirus anti: 7

How did CC(C)CC(=O)Nc1cc(C(F)(F)F)ccc1N1CCOCC1 do in these assays?
RecA splice inh: -0.6; Mtb H37Rv: 4%; Mtb betalactam: 2; YopH PTP inh: -30; Arbovirus anti: -3

What do the screens show for `CN1CCCC1CCNC1C2CC3CC(C2)CC1C3` (centres undefined)?
RecA splice inh: 1.8; Mtb betalactam: -9; YopH PTP inh: -32; Arbovirus anti: 4

Results for CCN1CNC(=S)N(c2cccc(C)c2C)C1 ?
RecA splice inh: -0.9; Mtb H37Rv: -4%; Mtb betalactam: -2; YopH PTP inh: 19; Arbovirus anti: 7

Results for CC(C)CCC(C(=O)O)C(C)CC(=O)NNC(=O)c1ccco1 (centres undefined) ?
RecA splice inh: 2.2&-3.9; Mtb H37Rv: -1%&-3%; Mtb betalactam: 0&-3; Arbovirus anti: 2

What do the screens show for `Brc1nc(Br)n(Cc2ccccc2)n1`?
RecA splice inh: 1.7; Mtb H37Rv: 2%; Mtb betalactam: 1; Arbovirus anti: -2

Continued; the last five above are carried over.
How did CC(C)CC(=O)Nc1cc(C(F)(F)F)ccc1N1CCOCC1 do in these assays?
RecA splice inh: -0.6; Mtb H37Rv: 4%; Mtb betalactam: 2; YopH PTP inh: -30; Arbovirus anti: -3

What do the screens show for `CN1CCCC1CCNC1C2CC3CC(C2)CC1C3` (centres undefined)?
RecA splice inh: 1.8; Mtb betalactam: -9; YopH PTP inh: -32; Arbovirus anti: 4

Results for CCN1CNC(=S)N(c2cccc(C)c2C)C1 ?
RecA splice inh: -0.9; Mtb H37Rv: -4%; Mtb betalactam: -2; YopH PTP inh: 19; Arbovirus anti: 7

Results for CC(C)CCC(C(=O)O)C(C)CC(=O)NNC(=O)c1ccco1 (centres undefined) ?
RecA splice inh: 2.2&-3.9; Mtb H37Rv: -1%&-3%; Mtb betalactam: 0&-3; Arbovirus anti: 2

What do the screens show for `Brc1nc(Br)n(Cc2ccccc2)n1`?
RecA splice inh: 1.7; Mtb H37Rv: 2%; Mtb betalactam: 1; Arbovirus anti: -2

Results for O=C(Nc1ccc(F)cc1)c1nc[nH]c1C(=O)O ?
RecA splice inh: 1.5; Mtb betalactam: 6

What do the screens show for `CCNS(=O)(=O)c1ccc(CCC(=O)NCc2ccc3c(c2)OCO3)cc1`?
RecA splice inh: -1.5; Mtb betalactam: 2

How did CCCOC1CCCN(C(=O)c2cc(COc3ccc(F)c(F)c3)on2)C1 (centres undefined) do in these assays?
RecA splice inh: 0.4; Mtb betalactam: inconclusive

What do the screens show for `O=C(Nc1ccccc1)C1CCCCN1S(=O)(=O)c1ccccc1` (centres undefined)?
RecA splice inh: 1.6; Mtb H37Rv: 2%; Mtb betalactam: -4; Arbovirus anti: 11

What do the screens show for `Cc1ccc(S(=O)(=O)NC(=O)COc2ccccc2C)c(C)c1`?
RecA splice inh: -0.9; Mtb betalactam: -7

What do the screens show for `Cc1ccnc(NC(=O)c2ccc(C(=O)c3ccccc3)cc2)c1`?
RecA splice inh: 2.4; Mtb betalactam: 23

Results for COc1ccc(-c2csc3nc(C(C)C)oc(=O)c23)cc1OC ?
RecA splice inh: 5.9; Mtb H37Rv: 0%; Mtb betalactam: -7; Arbovirus anti: -5

Results for O=C(O)C1CC(=O)N(c2ccc(F)c(F)c2)C1 (centres undefined) ?
RecA splice inh: -0.1; Mtb H37Rv: 0%; Mtb betalactam: -6; YopH PTP inh: 8; Arbovirus anti: 0

What do the screens show for `c1ccc(COC2CCCN(Cc3nc(-c4cnccn4)no3)C2)cc1` (centres undefined)?
RecA splice inh: 0.2; Mtb H37Rv: 2%; Mtb betalactam: 1; Arbovirus anti: 4

Results for Cc1noc(C)c1CSc1nc2sc(C)c(C)c2c(=O)n1C1CCCC1 ?
RecA splice inh: 1.8; Mtb H37Rv: -2%; Mtb betalactam: 5; YopH PTP inh: -44; Arbovirus anti: -2

Results for COc1cc(NC(=O)c2[nH]c(C)c(C(C)=O)c2C)cc(OC)c1OC ?
RecA splice inh: 0.9; Mtb betalactam: -1

Results for O=C(O)CSc1nnnn1C1CCCCC1 ?
RecA splice inh: -0.3; Mtb H37Rv: -4%; Mtb betalactam: 4; Arbovirus anti: -1

Results for O=C(NC(=S)Nc1cccc2c(O)cccc12)c1ccccc1[N+](=O)[O-] ?
RecA splice inh: 0.7; Mtb betalactam: -3

What do the screens show for `Cn1c(=O)oc2cc(S(=O)(=O)Nc3ccc4c(c3)OCO4)ccc21`?
RecA splice inh: 8.2; Mtb H37Rv: -1%; Mtb betalactam: 2; YopH PTP inh: -43; Arbovirus anti: -11

How did Clc1ccccc1CN1CCSCC1 do in these assays?
RecA splice inh: -2.9; Mtb betalactam: -6

What do the screens show for `Cc1nn(-c2ccccc2)c2nc(N)c(C(N)=O)cc12`?
RecA splice inh: 0.3; Mtb betalactam: 1

Results for Cc1cc(=O)n2[nH]c(SCc3ccccc3Cl)nc2n1 ?
RecA splice inh: -2.9; Mtb betalactam: -4

What do the screens show for `CC(=O)NC1=NN(C(C)=O)C(C)(c2ccc3ccccc3c2)S1` (centres undefined)?
RecA splice inh: 1.4; Mtb H37Rv: -2%; Mtb betalactam: -7; YopH PTP inh: -10; Arbovirus anti: -8

Results for Cn1cccc1C(=O)N/N=C/c1c(Cl)cccc1Cl ?
RecA splice inh: -0.2; Mtb betalactam: 5

How did CCCc1cc2c(=O)c(-c3cscn3)c(C(=O)OCC)oc2cc1O do in these assays?
RecA splice inh: 2.4; Mtb H37Rv: 1%; Mtb betalactam: 5; Arbovirus anti: 19

What do the screens show for `CN(C)S(=O)(=O)c1ccc(C(=O)Nc2ccccn2)cc1`?
RecA splice inh: 1.5; Mtb H37Rv: -2%; Mtb betalactam: -3; YopH PTP inh: -45; Arbovirus anti: 3; Arbovirus anti repeat: 5

Screening results: PubChem, several laboratories
